# HNF4A DNA FP – change in binding of human HNF4A to DNA, primary screen, biochemical, fluorescence polarization, FITC-DNA; Hepatocyte nuclear factor 4-alpha (Homo sapiens), P41235; 1 h; activity change, % at 10 µM; hit rate 0.3% among 360,000; AID 1224865, 2016; in the data active means activity change above about 30%, passing the limit was not always enough;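 further: controls were the assay level and a saturating level of protein; the project sought stronger binding though the title names inhibitors; some compounds called inactive have numbers as strong as hits; positive values seem to mean higher polarization but the record does not say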
# Target sequence (P41235 whole entry, looked up): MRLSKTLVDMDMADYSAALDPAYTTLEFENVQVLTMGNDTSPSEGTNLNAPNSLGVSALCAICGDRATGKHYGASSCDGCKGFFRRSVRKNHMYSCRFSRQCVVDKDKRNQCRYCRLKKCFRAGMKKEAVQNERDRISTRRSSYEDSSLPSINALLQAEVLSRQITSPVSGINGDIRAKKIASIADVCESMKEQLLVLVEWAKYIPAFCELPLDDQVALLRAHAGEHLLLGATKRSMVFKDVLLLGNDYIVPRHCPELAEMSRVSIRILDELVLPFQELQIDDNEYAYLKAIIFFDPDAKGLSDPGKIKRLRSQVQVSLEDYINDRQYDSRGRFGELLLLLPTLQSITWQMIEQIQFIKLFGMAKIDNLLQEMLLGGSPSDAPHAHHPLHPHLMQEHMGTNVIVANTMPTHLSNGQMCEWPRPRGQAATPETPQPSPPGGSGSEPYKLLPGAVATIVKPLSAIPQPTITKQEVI
# Beta2AR agonist – beta2AR agonists driving receptor internalization, primary screen, cell-based, FAP fluorogen, flow cytometry. Beta-2 adrenergic receptor (Homo sapiens), P07550. Am2.2-beta2AR cells; reference of the scale not given here. response, % (no concentration beside the values). hit rate 0.43% among 340,000. AID 504454, 2011;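 active means response above a set limit, near 3 SD of response in nonfluorescent compounds, cut at about 42% in these data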;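 further: stock transfer was 100 nL into about 11 µL; a reference agonist was the positive control; negative values mostly stem from fluorescent compounds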
# Target sequence (P07550 whole entry, looked up): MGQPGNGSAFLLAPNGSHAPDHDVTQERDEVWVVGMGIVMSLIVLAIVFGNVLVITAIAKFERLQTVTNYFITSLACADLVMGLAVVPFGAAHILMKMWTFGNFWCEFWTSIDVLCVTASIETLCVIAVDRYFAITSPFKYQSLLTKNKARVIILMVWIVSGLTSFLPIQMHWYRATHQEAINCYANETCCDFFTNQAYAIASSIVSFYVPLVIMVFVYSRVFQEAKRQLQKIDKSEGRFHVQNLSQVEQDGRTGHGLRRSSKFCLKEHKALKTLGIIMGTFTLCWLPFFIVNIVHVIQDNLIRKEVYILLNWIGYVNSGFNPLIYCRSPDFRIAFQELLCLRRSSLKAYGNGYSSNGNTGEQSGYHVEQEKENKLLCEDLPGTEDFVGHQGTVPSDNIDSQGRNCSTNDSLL
# FGF22 binding – binders of human FGF22 protein, primary screen, FGF22 synaptogenesis inhibitor project, biophysical, thermal shift, single point. Fibroblast growth factor 22 (Homo sapiens), Q9HCT0. recombinant FGF22 thermal shift, SYPRO orange fluorescence; percent of sucrose octasulfate shift, DMSO zero. calls only at 9.99 µM. hit rate 1.5% among 340,000. AID 651658, 2012;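 active means melting point raised past a set limit in the mean and every replicate; three in four hits are not shown here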
# E coli growth – E. coli growth inhibition, primary screen, OD600; Escherichia coli growth, 23 h; stronger effect = lower value; OD600 absorbance (no concentration beside the values); hit rate 0.21% among 330,000;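 active means OD600 absorbance below the run mean of sample wells minus 3.6 SD, in any replicate, cut at about 0.56 in these data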;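 further: stock transfer was 300 nL into about 60 µL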
# rRNA inh HTS – reduced GFP signal of wild-type E. coli, primary screen, bacterial rRNA inhibitor project, GFP/RFP fluorescence, OD600, single point; E. coli WT GFP vs humanized-ribosome RFP mutants, 24 h; stronger effect = lower value; DMSO median 0, no signal -100; GFP signal change (wild-type ribosome), % (no concentration beside the values); hit rate 1.6% among 350,000; AID 720706, 2013;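 active means significant combined selectivity score with lowered wild-type GFP, culture density cut under 30%, mutant RFP and density less affected; inactive means any of these conditions unmet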; further: one replicate is shown; some compounds called inactive have numbers as strong as hits
# ALR inh – inhibitors of human ALR sulfhydryl oxidase, primary screen, biochemical, H2O2 detection, HRP-luminol luminescence, single point; FAD-linked sulfhydryl oxidase ALR (Homo sapiens), P55789; purified ALR, DTT oxidation; inhibition, % (no concentration beside the values); hit rate 3.8% among 290,000;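 active means mean and each replicate at 75% or more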;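 further: stock transfer was 7.5 nL into about 7.5 µL; 0% = neutral wells and 100% = wells with inactivated enzyme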
# Target sequence (P55789 whole entry, looked up): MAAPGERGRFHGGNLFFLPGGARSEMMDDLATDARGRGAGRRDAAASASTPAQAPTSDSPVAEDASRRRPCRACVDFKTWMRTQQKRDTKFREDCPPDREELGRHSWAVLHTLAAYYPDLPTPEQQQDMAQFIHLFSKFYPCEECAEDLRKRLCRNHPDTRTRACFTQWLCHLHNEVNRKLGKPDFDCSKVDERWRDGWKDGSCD
# UCH37 DUB inh – inhibitors of human UCH37 deubiquitinase, primary screen, biochemical, Ub-AMC cleavage, fluorescence; Ubiquitin carboxyl-terminal hydrolase isozyme L5 (Homo sapiens), Q9Y5K5; purified proteasome/UCH37; inhibition, % (test concentration not listed); hit rate 0.33% among 330,000;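 active means mean of two replicates above 20%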;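 further: 0% = compound-free wells with enzyme and 100% = wells lacking proteasome; stock transfer was 100 nL into about 20 µL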
#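 Material: human UCH37 enzyme supplied as purified proteasome complex. Measure: % inhibition of Ub-AMC cleavage fluorescence. Medium: pH 7.4 Tris-HCl (50 mM) with ovalbumin, ATP-MgCl2, DTT. Times: 30 min preincubation with enzyme, 25 min cleavage at room temperature. Detection: AMC fluorescence intensity at 355/460 nm.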
# rRNA inh HTS OD600 – also measured in rRNA inh HTS; calls as there; OD600 change, %; measured here: OD600 growth;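 optical density of the mix in the first replicate; 0 = DMSO median and -100 = no signal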
# rRNA inh HTS RFP – recorded beside rRNA inh HTS, whose call it bears; RFP signal change, %; measured here: RFP humanized mutant strains;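 first replicate; 0 = DMSO median and -100 = no signal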
# Starred values were filed as active, the others as inactive; i = inactive; · = not tested or not shown. These rows are one share of the data. The share of hits here may be higher or lower than overall.
SMILES,HNF4A DNA FP,Beta2AR agonist,FGF22 binding,E coli growth,rRNA inh HTS,rRNA inh HTS OD600,rRNA inh HTS RFP,ALR inh,UCH37 DUB inh
CCOc1ccc(OCCC(=O)OCC(=O)Nc2cccc(S(=O)(=O)N3CCCCC3)c2)cc1,3.6,8.4,i,0.664,-8.8,-2.4,-11.3,·,2.5
C=CCN(C(=O)c1csnn1)C(C(=O)NC1CCCC1)c1ccccc1F (stereo unspecified),-1.2,1.1,i,0.628,·,·,·,-4.5,0.7
COc1ccc(CN(CCC(c2ccccc2)c2ccc(OC(C)C)cc2)C(=O)CCl)cc1OC (stereo unspecified),1.8,25.5,·,0.718,·,·,·,3.5,2.8
CN(Cc1nc(-c2cnccn2)no1)Cc1n[nH]c2c1CCCC2,-4.7,-1.1,i,0.639,72.2,13.9,-1.1,·,2.0
COc1ccc(N2CCN(C(=O)CCc3nnc4ccc(N5CCOCC5)nn34)CC2)cc1,4.5,-2.8,i,0.647,0.0,0.9,1.7,25.5,0.6
Cc1cc(Br)c(OCc2ccc(C(=O)N/N=C3\CC(=O)CC(C)(C)C3)cc2)c(Br)c1,7.5,2.8,i,·,-1.2,7.8,2.1,-6.3,·
CCN1CCN(c2nn3c(=O)c4ccccc4nc3c3ccccc23)CC1,3.1,-1.7,·,0.735,·,·,·,-16.6,-14.3
COc1ccccc1C(CNC(=O)CNC(=O)c1ccc(Cl)c(Cl)c1)N1CCCC1 (stereo unspecified),-1.1,13.3,i,0.714,11.2,6.4,4.1,-0.6,2.3
CC(C)(C)c1ccc(NC(=O)COC(=O)c2ccc3ncsc3c2)cc1,5.1,0.2,i,0.674,·,·,·,1.5,-2.0
Cc1ccc(C)c(N(C(=O)c2csnn2)C(C(=O)NC2CCCCC2)c2ccccn2)c1 (stereo unspecified),5.8,3.7,i,0.659,2.8,-1.8,-0.8,3.0,1.8
COc1ccc(NC(=O)N2CCCC(CNS(=O)(=O)c3cccs3)C2)c(C)c1 (stereo unspecified),-0.3,6.0,i,0.677,6.2,-1.2,0.9,-3.4,1.1
Brc1ccc(/C=N/Nc2nc3ccccc3o2)cc1,-1.1,-13.1,i,·,-33.4,-60.2,2.2,-5.4,·
CCCN(CC(=O)Nc1ccccc1OC)C(=O)c1ccc(COc2ccccc2)o1,2.4,13.2,i,0.649,-3.2,-12.6,-5.0,-43.8,2.0
COc1ccc(N=Nc2ccc(CO)cc2)cc1,0.0,-0.4,i,0.704,-8.5,2.7,0.4,-10.8,10.4
CCOc1ccc(-c2nnc(-c3cccs3)o2)cc1,-0.7,-5.5,·,0.698,·,·,·,-2.9,-61.2
COCCSc1ccccc1C(=O)Nc1cc(C)ccn1,2.3,-3.2,i,0.691,1.1,-3.7,-1.7,-3.0,-8.0
CN(Cc1ccccc1F)C(=O)CN1c2cccc3cccc(c23)S1(=O)=O,1.9,5.1,i,0.655,-7.0,-11.8,-3.7,·,-64.0
Cc1cc(NC(=O)CCC(=O)N(CC(=O)NC2CCCC2)c2cccc(C)c2C)no1,-15.5,-2.1,·,0.73,·,·,·,-4.4,1.1
CCOC(=O)C1=C(Cn2cnc3ccccc32)NC(=O)NC1c1cc(C)ccc1C (stereo unspecified),2.1,-0.5,·,0.632,·,·,·,-3.7,1.3
Cc1cccc(CSc2nc3c(c(-c4cccs4)c2C#N)CN(C)CC3)c1,5.8,-60.0,i,0.715,-18.5,-0.1,28.0,71.6,5.3
CCC1Sc2ccccc2N(CC(=O)NCCC(C)C)C1=O (stereo unspecified),1.1,0.2,i,0.681,-8.3,-12.3,4.3,·,-0.3
O=C(NCc1cccnc1)C1Cc2c(-c3ccc(Cl)cc3)ccnc2O1 (stereo unspecified),2.8,·,i,·,-6.6,-2.2,-0.1,·,·
COc1ccc(NC(=O)C2Cc3c(-c4ccc(NC(C)=O)cc4)ccnc3O2)cn1 (stereo unspecified),-9.3,·,i,·,2.5,-0.9,1.7,·,·
c1ccc(N2CCN(c3ccccc3)C2c2cccnc2)cc1,-8.1,1.5,·,0.623,·,·,·,·,2.4
Cn1c(SCC(=O)c2ccc3c(c2)OCO3)nnc1C1COc2ccccc2O1 (stereo unspecified),1.9,1.3,·,0.729,·,·,·,-2.0,5.0
CCOC(=O)c1c(NC(=O)CC2Nc3ccccc3NC2=O)sc(C)c1C (stereo unspecified),52.5*,-3.4,·,0.731,·,·,·,-1.5,2.3
CC(=O)N1N=C(c2cccs2)CC1c1ccco1 (stereo unspecified),0.6,-3.0,·,0.678,7.3,-1.9,-3.9,-3.7,-1.7
OCCCNCc1cccc2ccccc12,-1.1,5.4,·,0.677,·,·,·,-2.8,2.0
CCOc1cc(/C=N/NC(=O)c2cccs2)ccc1OC(=O)N1CCOCC1,-4.4,0.5,·,·,·,·,·,-2.2,·
COc1ccc(S(=O)(=O)NC(C)C(=O)NCc2ccco2)cc1OC (stereo unspecified),-0.7,-5.5,i,0.706,10.1,12.9,-1.3,2.9,-1.5
CCn1c2c(c3cc(OCC(C)C)ccc31)CCCC2=O,-1.5,10.2,i,0.695,1.7,-1.0,2.0,-15.1,-19.9
COc1ccc(CCNC(=O)CN2c3cccc4cccc(c34)S2(=O)=O)cc1OC,1.5,-4.1,i,0.694,6.0,5.6,2.4,-34.1,-7.4
O=C1CCN(Cc2ccccc2)C(=O)N1,1.4,0.8,i,0.665,11.6,10.8,-1.1,·,-0.7
Cn1c(=O)oc2cc(S(=O)(=O)NCCC(=O)N3CCc4ccccc43)ccc21,0.5,2.7,·,0.613,·,·,·,-7.9,0.3
COc1cccc(CNC(=O)C2CCCN(c3ncnc4c3nc3n4CCCCC3)C2)c1 (stereo unspecified),2.7,3.2,i,0.702,-0.7,3.9,-0.9,-3.8,5.2
CC(C)N(C(=O)[C@H]1C[C@H](CC(=O)NCc2ccco2)C(=O)N2CCc3c([nH]c4cc(-c5ccco5)ccc34)[C@]12C)C(C)C,0.5,3.2,i,0.701,8.3,11.5,20.9,·,-8.9
CN1CCN(S(=O)(=O)c2ccc(NC(=S)NC(=O)c3ccccc3)cc2)CC1,2.3,-1.2,·,0.725,·,·,·,5.4,4.9
COc1ccc(N(C(=O)CNC(=O)c2ccco2)C(C(=O)NC2CCCC2)c2ccc(C)o2)cc1 (stereo unspecified),-3.5,-9.8,i,0.692,6.4,12.6,-2.7,-2.2,5.4
O=C1CC(Cc2ccccc2)C(=O)N1CCc1ccc2c(c1)OCO2 (stereo unspecified),-5.0,5.9,·,0.669,·,·,·,-1.5,0.5
CC1(C)Cc2noc(N)c2C(C)(C)N1OC(=O)c1ccco1,0.8,-0.7,·,·,·,·,·,8.6,·
O=C(N/N=C/c1cc([N+](=O)[O-])cc(Br)c1O)C12CC3CCC(CC(C3)C1)C2,4.0,7.6,i,·,9.5,5.4,-3.6,-2.3,·
COc1ccc(NC(=O)c2ccccc2SC)cc1OC,2.3,-1.6,·,0.757,·,·,·,-7.5,6.5
O=c1c2ccccc2sn1-c1nccs1,-0.3,1.3,i,0.688,5.7,7.7,0.7,·,2.1
Cc1ccc(N=Cc2nc(-c3ccc(C)cc3)oc2O)cc1,-2.5,5.2,i,0.695,15.4,16.4,0.2,·,-1.0
CCn1c(NCCCO)nc2c(c1=O)C(C)(CC)Cc1ccccc1-2 (stereo unspecified),4.4,0.4,i,0.684,-24.1,-23.9,-3.5,5.1,i
O=C(c1cc(-c2ccccc2)nn1CC1CC(c2cccnc2)=NO1)N1CCOCC1 (stereo unspecified),0.0,-7.8,·,0.715,·,·,·,-5.2,3.2
CC1CN(C2CCCCC2)c2nc3c(c(=O)n(C)c(=O)n3C)n2C1 (stereo unspecified),0.6,-5.6,·,0.751,·,·,·,8.0,3.1
CCOC(=O)C1(Cc2ccccc2C(F)(F)F)CCN(CCCn2cccn2)CC1,4.0,-0.5,i,0.683,-3.6,-1.3,-5.0,-27.4,1.0

# A different layout for two compounds above.
# Every second line gives: HNF4A DNA FP, Beta2AR agonist, FGF22 binding, E coli growth, rRNA inh HTS, rRNA inh HTS OD600, rRNA inh HTS RFP, ALR inh, UCH37 DUB inh
> COc1ccccc1C(CNC(=O)CNC(=O)c1ccc(Cl)c(Cl)c1)N1CCCC1 (stereo unspecified)
  -1.1, 13.3, i, 0.714, 11.2, 6.4, 4.1, -0.6, 2.3
> Cc1cccc(CSc2nc3c(c(-c4cccs4)c2C#N)CN(C)CC3)c1
  5.8, -60.0, i, 0.715, -18.5, -0.1, 28.0, 71.6, 5.3

# Following part.
SMILES,HNF4A DNA FP,Beta2AR agonist,FGF22 binding,E coli growth,rRNA inh HTS,rRNA inh HTS OD600,rRNA inh HTS RFP,ALR inh,UCH37 DUB inh
O=S1(=O)CCN2C(=N1)Sc1c2ccc2c1CCCC2,0.1,-15.6,i,0.639,-14.0,-20.8,10.1,-21.1,-1.1
COc1ccc(/C=C/C(=O)N(CC(C)C)C2CCS(=O)(=O)C2)cc1 (stereo unspecified),3.7,-3.9,·,0.716,4.8,1.5,1.9,-10.3,7.1
O=C(NNC(=O)c1ccc2ncccc2c1)c1ccc(Cl)cc1,-0.3,10.3,i,0.696,14.2,16.4,1.1,8.1,2.5
CN(C)S(=O)(=O)c1cc(NC(=O)CN2CCc3ccccc32)ccc1Cl,1.2,-0.4,i,0.725,5.8,2.8,6.1,8.5,5.6
CC[C@]12C(=O)N(C)C[C@H]([C@@H]3C(=O)N(Cc4ccccc4)C(=O)[C@@H]31)N2C(=O)c1ccccc1,2.1,5.9,i,·,13.8,12.2,-3.1,·,0.7
COc1ccc2sc(-c3ccc(S(C)(=O)=O)cc3)c(C#Cc3cncn3C)c2c1,9.0,24.8,i,0.749,3.1,13.5,-6.1,1.3,-17.5
CN(C)c1ccc(/C=N/NC(=O)c2ccnn2C)cc1,1.1,-2.7,i,·,-4.2,-2.8,-0.8,98.6*,·
O=C1NC(=S)N/C1=C/c1ccc2c(c1)OCO2,1.8,-0.1,i,0.653,6.7,2.9,-1.5,6.7,-1.2
O=S(=O)(NCc1ccco1)c1cccc(S(=O)(=O)N2CCOCC2)c1,-0.3,5.6,·,0.669,·,·,·,-8.0,0.9
CCCNS(=O)(=O)c1cc2c3c(c1)CCN3C(=O)CC2,2.4,-1.3,i,0.67,2.0,3.0,0.4,-8.1,-1.1
Cn1c(=O)c2[nH]c(N=NN3CCCCC3)nc2n(C)c1=O,3.6,-8.8,i,0.677,-1.5,3.8,-1.0,·,22.4*
CCCNC(=O)C1(C)CCCN(CCOc2ccccc2)C1 (stereo unspecified),0.5,·,i,·,8.0,15.2,1.8,·,·
CC(C)NC(=O)NC(=O)COc1cccc2c1OC(C)(C)C2,1.0,-4.4,·,0.737,·,·,·,-2.4,-4.3
CNc1nc(NCc2cccc(OC)c2)c2sccc2n1,-3.9,·,i,·,3.7,-6.9,-3.7,·,·
COC(=O)C(Cc1ccccc1)NC(=O)CC(C)CC(=O)Nc1ccc(C)cc1 (stereo unspecified),-0.3,12.6,i,0.651,2.0,-14.2,-2.4,-3.6,4.5
O=C(NC(=S)N1CCCC(C(F)(F)F)C1)c1ccc(F)cc1 (stereo unspecified),0.9,-3.2,i,0.693,6.1,14.5,1.3,15.2,0.9
Cc1cccc(N2CC(C(=O)NC3CCCCCC3)CC2=O)c1C (stereo unspecified),-1.8,-8.1,i,0.701,·,·,·,22.0,1.3

# Compound activity deposited in PubChem by several laboratories.
